Source: PubChem (Broad Institute)
Tg IFNy HTS: inhibitors of Toxoplasma gondii growth with IFN-gamma | Toxoplasma gondii growth in IFN-gamma-treated host cells; stronger effect = lower value; reference of the scale not given here | activity change, negative = inhibition, %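 (about 20 µM by stock and volumes)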 | 69,000 compounds, 3.8% hits | AID 1259416;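 active = below -70%; inconclusive = fit judged invalid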;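 note: host cells are HeLa cells infected with Toxoplasma gondii; parasite growth read as luciferase light; one replicate is shown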
* hit, by the source's call; i = inactive; ? = inconclusive; & = joins results of further samples.

SMILES | Tg IFNy HTS
O=C(NC1CCCC1)[C@H]1[C@H](CO)[C@H]2Cn3c(ccc(C4=CCCCC4)c3=O)[C@@H]1N2CC1CC1 | -54.1
Cn1ccnc1-c1ccc(N2CCC(C(N)=O)(N3CCCCC3)CC2)nn1 | 176.8
NCCS(=O)(=O)c1ccc(F)cc1 | -10.4
Cn1c(=O)c(=O)n(C)c2cc(S(=O)(=O)N3CCOc4ccccc43)ccc21 | -61.6
CN1CC2(CCCN(C(=O)c3cc(-c4ccccc4O)n[nH]3)CC2)OC1=O (stereo unspecified) | 3.4
CN1CCN(C(=O)c2ccccn2)Cc2cccnc21 | 2.5
O=C(C[C@H]1CC[C@H]2[C@@H](COC[C@@H](O)CN2C(=O)c2ccncc2)O1)Nc1ccc(-c2ccccc2)cc1 | -33.1
C[C@H](CO)N1C[C@H](C)[C@H](CN(C)S(=O)(=O)c2cn(C)cn2)Oc2ncc(C3=CCCCC3)cc2C1=O | 97.4
O=C(NCCc1ccncc1)C(F)(F)F | 5.7
O=C(O)C[C@@H]1C=C[C@@H](NC(=O)Nc2cc(F)ccc2F)[C@@H](CO)O1 | -29.1
C=CCn1c(=O)c(C(=O)Nc2cccc(Cl)c2C)c(O)c2ccccc21 | 102.7
CN1CCN2CCN(c3cncc(C(=O)N4CCCCC4)n3)CC2C1=O (stereo unspecified) | -26.5
Cn1ncc(Br)c1-c1cccc(N)c1 | -5.1
Cc1cc(C)c(S(=O)(=O)Nc2cccc(C(F)(F)F)c2)c(C)c1 | 7.3
O=C(COc1ccc(Cl)cc1)Nc1nc(-c2cc3ccccc3oc2=O)cs1 | 62.3
Cc1c(-c2nc(-c3ccc(C(F)(F)F)cc3)no2)n(C)oc1=O | 224.3
Cc1ccc(-c2nc(Cn3nnc(C(=O)NCc4ccncc4)c3C)c(C)o2)cc1 | 72.1
Cc1nc(-c2ccc(F)cc2)sc1CCNC(=O)C(=O)Nc1ccccc1F | 40.2
CCCCCCCc1ccc(NC(=O)NCc2ccccn2)cc1 | -36.9
COc1ccc(-c2nc(C)c(CCNC(=O)c3ccccc3Br)s2)cc1 | i
N#Cc1nccnc1N1CCC(C(c2ccccc2)c2ccccc2)CC1 | -55.7
Cc1ccc2[nH]c(C(=O)O)c(CN3CCN4CCN(C)C(=O)C4C3)c2c1 (stereo unspecified) | -37.3
CCn1ccc2ccc(CCC(=O)N3CCN(c4ccccn4)CC3)cc21 | 90.8
Cc1nc(S(=O)(=O)N2C[C@@H]3[C@H](C2)[C@H]2CC[C@@H]3O2)cn1C | -11.3
COCC(=O)N1C[C@@H](C)[C@@H](OC)CN(C)C(=O)c2ccc(NC(=O)Nc3cccc(F)c3)cc2OC[C@H]1C | 13.4

A second format for some results above:
SMILES: COCC(=O)N1C[C@@H](C)[C@@H](OC)CN(C)C(=O)c2ccc(NC(=O)Nc3cccc(F)c3)cc2OC[C@H]1C
- Tg IFNy HTS: 13.4
SMILES: O=C(C[C@H]1CC[C@H]2[C@@H](COC[C@@H](O)CN2C(=O)c2ccncc2)O1)Nc1ccc(-c2ccccc2)cc1
- Tg IFNy HTS: -33.1
SMILES: C=CCn1c(=O)c(C(=O)Nc2cccc(Cl)c2C)c(O)c2ccccc21
- Tg IFNy HTS: 102.7
SMILES: Cc1ccc(-c2nc(Cn3nnc(C(=O)NCc4ccncc4)c3C)c(C)o2)cc1
- Tg IFNy HTS: 72.1

Other entries follow:
SMILES | Tg IFNy HTS
CCCc1nnc(NC(=O)CN2CCCC2c2c(C)noc2C)s1 (stereo unspecified) | 98.5
Fc1ccc(N2CCCN(CC3CCOC3)CC2)cc1 (stereo unspecified) | -2.0
CCCNC(=O)N1CCC2(CC1)CN(C(=O)COC)[C@@H](CO)c1[nH]c3cc(OC)ccc3c12 | 312.4
CC(=O)O[C@]1(C(C)=O)CC[C@H]2[C@@H]3C=C(C)C4=CC(=O)CC[C@@H]4[C@H]3CC[C@@]21C | -20.6
CC(c1ccon1)N(C)C(=O)C1(Oc2ccc(Cl)cc2)CCNCC1 (stereo unspecified) | -8.1
CN1CCC(Cc2noc(-c3cccc4c3OCC4)n2)CC1 | -3.6
Cc1nc(CN(C)Cc2cnc(-c3cccc4ccccc34)nc2)no1 | 8.1
Cc1noc(C)c1S(=O)(=O)N1CCNCC(Cc2cc(N(C)C)ncn2)C1 (stereo unspecified) | -13.6
Cc1cc(-c2c(-c3ccccc3)ncn2CCO)c(C)n1Cc1cccnc1 | 3.3
Nc1cc(-c2ccco2)nn(Cc2c(Cl)cccc2Cl)c1=O | -28.2
O=C1N(Cc2ccc(F)c(F)c2)CCCC1(O)CNCCc1cn[nH]c1 (stereo unspecified) | -3.3
O=C(c1ccc[nH]1)N1CCC2(CCCN2CC2CC2)CC1 | -43.3
COc1ccc(CCC(=O)NCCc2sc(-c3ccc(OC)c(OC)c3)nc2C)cc1 | i
c1cc2c(cc1-c1csc(-c3ccc4c(c3)OCCO4)n1)OCCO2 | 57.7
O=C1c2ccccc2-c2nnc(-c3cccc(OC(F)(F)F)c3)cc21 | 38.6
CCN1c2cc(C)ccc2-n2cccc2C12CCN(C(=O)Nc1ccc(C)cc1C)CC2 | 15.2
CSCCC(NC(C)=O)C(=O)Oc1ccc2c3c(c(=O)oc2c1)CCCC3 (stereo unspecified) | 2.0
COc1cccc(C#Cc2ccc3c(c2)O[C@@H](CN(C)C(=O)CN2CCOCC2)[C@H](C)CN([C@@H](C)CO)S3(=O)=O)c1 | ?
CC(Sc1nnc(-c2ccccc2)c(-c2ccccc2)n1)C(=O)Nc1nccs1 (stereo unspecified) | 24.3
CN1CC(=O)N(c2cnn(C)c2)CC12CCN(C(=O)C1CCOCC1)C2 (stereo unspecified) | -8.5
COc1cccc(NC(=O)c2nc(-c3cn(Cc4ccccc4)cn3)n3ccccc23)c1 | 37.0
NC(=O)N1CCCC(C(=O)NC2(CN3CCCC3)CCCCC2)C1 (stereo unspecified) | 1.4
CN1C(=O)c2cc(NC(=O)c3ccc(F)c(F)c3)ccc2OC[C@H]2O[C@H](CC(=O)N3CCCCC3)CC[C@@H]21 | 9.2
c1ccc2[nH]c(CC3CCCN(Cc4ccnc(N5CCOCC5)n4)C3)nc2c1 (stereo unspecified) | -15.6
COCC(=O)NCCc1csc(-c2ccc(Cl)cc2)n1 | -2.7
Cc1ccc(-c2cn[nH]c2C2CCCN(C(=O)C(=O)c3ccco3)C2)cc1 (stereo unspecified) | -13.4
CCc1nc(SCC(=O)N[C@@H]2C[C@H]2c2ccccc2)n[nH]1 | 8.6
CC(C)[C@H]1COCn2nncc2CC[C@H](C)C(=O)N1 | -22.2
Fc1ccc(CNc2nc(-c3nnc(-c4ccccc4)o3)nc3ccccc23)cc1 | 22.5
CN(Cc1cc(-c2ccccn2)no1)Cc1ncccc1C(=O)O | -3.7
Cc1cccc(-c2nc(CCNC(=O)c3cccc(C(F)(F)F)c3)cs2)c1 | i
Cc1ccc(NC(=O)c2nnn(Cc3nc(-c4ccc(Cl)cc4)oc3C)c2C)c(C)c1 | 15.3
Cn1ccnc1-c1nc(NCCN2CCOCC2)ncc1-c1cccs1 | 4.6
Clc1ccc(CNc2nc(SCc3ccccc3Cl)nc3ccccc23)cc1 | 29.7
C/C=C/c1ccc([C@H]2[C@@H](CO)N(S(C)(=O)=O)[C@@H]2CN(C(C)=O)C(C)C)cc1 | -5.1
COc1ccc2c3c(n(C)c2c1)[C@@H](CO)N(C(=O)c1ccncc1)CC31CN(C(C)=O)C1 | 18.7
CN1CCCNC(=O)C12CCN(Cc1ccc(-n3ccnc3)cc1)CC2 | -1.3
CN(C)C(=O)C12CCC(C)(c3nc4ccccc4nc31)C2(C)C (stereo unspecified) | 43.2
Cc1nc(N(C)C)nc2c1COCC21CCN(C(=O)c2cccnc2)C1 (stereo unspecified) | -6.3
CCN1C[C@H]2CCCO[C@H]2[C@H](N(C)Cc2ccco2)C1 | 49.7
CCc1nc(C2CC(=O)Nc3c2cnn3Cc2ccccc2Cl)c(C)[nH]1 (stereo unspecified) | 7.1
Cc1ccccc1C(=O)NCCc1csc(-c2ccc(Cl)cc2)n1 | -31.6
O=C(CCN1CCN(CCc2ccncc2)CC1)NC1CCCCCC1 | 29.3
CNC(=O)C[C@H]1CC[C@@H]2[C@H](COC[C@@H](O)CN2Cc2ccccc2F)O1 | 46.8
CNC(=O)c1ccc(-c2nc(CN3CCN(C(=O)NCc4ccc(C)cc4)CC3)c(C)o2)cc1 | 116.4
CCNC(=O)c1nc(Nc2ccc(C)cc2)c2ccccc2n1 | -26.3
COCCC1CCCCN1Cc1cccc(C(C)=O)c1 (stereo unspecified) | -1.8
COc1cccc(-c2cn(CC[C@@H]3CC[C@H](NS(=O)(=O)c4ccccc4Cl)[C@H](CO)O3)nn2)c1 | -24.1
COc1ccc(C2c3[nH]c4ccccc4c3CCN2C(=O)c2ccncc2)cc1 (stereo unspecified) | 117.1
COC(=O)c1c(-c2c(Cl)cccc2Cl)noc1NC(=O)N(C)C | -21.7

Further results follow.
SMILES | Tg IFNy HTS
O=C1OCCCN1CCNc1nccc(N2CCC(O)CC2)n1 | -7.7
COC(=O)c1c(NCc2ccc(F)cc2F)c2cc(F)ccc2[nH]c1=O | 5.5
CCC1=NC2(CCC(C(=O)Nc3ccc(C)nc3)CC2)C(=O)N1C (stereo unspecified) | -25.6
Cc1oc(-c2cccc(Br)c2)nc1Cn1c(=O)c2cccnc2n(-c2ccccc2)c1=O | -2.5
COc1cc(NC(=O)CN2CCC3(CC2)N=C(c2cccc(C)c2)C(=O)N3)cc(OC)c1 | -2.7
Cc1ccc(C2(O)CCN(C(=O)c3ccc(-n4cnnc4)cc3)CC2)nc1 | 7.0
O=C(N[C@@H]1CCO[C@]2(CCN(Cc3ccccc3F)C2)C1)c1ccco1 | -3.5
CC(=O)O[C@H]1C[C@@H](OC(C)=O)C(C)(C)C2C[C@@H](OC(C)=O)[C@]3(C)C(CC[C@@]4(C)[C@H](c5ccoc5)OC(=O)[C@H]5O[C@]543)[C@]21C (stereo partly specified) | 10.5
CCCc1ccc(S(=O)(=O)N2CCC3(CC2)Nc2cc(C)ccc2-n2cccc23)cc1 | 20.4
C[C@H]1CN([C@@H](C)CO)C(=O)c2cc(NC(=O)Nc3ccccc3)ccc2O[C@@H]1CN(C)Cc1ccccc1 | 3.9
CCN(C[C@H]1[C@H](c2ccccc2)[C@H](CO)N1C(=O)COC)S(C)(=O)=O | 4.4
CNC[C@@H]1Oc2ccc(NC(=O)CCC(F)(F)F)cc2C(=O)N([C@@H](C)CO)C[C@H]1C | -3.4
CCC1(c2ncc[nH]2)Cc2ccccc2O1 (stereo unspecified) | 12.8&12.5
Cc1nc(-c2ccc(Cl)cc2)sc1CCNC(=O)C(=O)Nc1ccccc1 | 48.0
Cc1ncoc1C(=O)N1CCC(Cc2cccc(-c3ccccc3)c2)(C(=O)NCC(C)C)C1 (stereo unspecified) | -24.4
Nc1csc2cc(C(F)(F)F)cc(Cl)c12 | 11.8
COC(=O)c1csc2c(C(F)(F)F)cc(N3CCN(C(=O)c4ccco4)CC3)nc12 | -44.4
O=C(NCCc1c[nH]c2ccccc12)c1ccc(N2CCCC2)c(S(=O)(=O)N2CCCC2)c1 | -0.8
Cc1ccc(CNC2=NCCNC23CCN(S(=O)(=O)c2cccs2)CC3)cc1 | 7.9
Clc1ccc(-c2[nH]ncc2CN(CCN2CCOCC2)Cc2cccnc2)cc1 | -37.9
O=C(C1CCCO1)N1CCCN(S(=O)(=O)NCc2ccccc2)CC1 (stereo unspecified) | -1.5
COc1cc(C(=O)N2CCC3(CC2)NC(=O)c2ccccc2N3C)cc(OC)c1OC | 17.1
Clc1ccc(C(Cn2ccnc2)OCc2c(Cl)cccc2Cl)c(Cl)c1 (stereo unspecified) | -69.7
COc1ccccc1NC(=O)c1nnn(Cc2nc(-c3ccccc3C)oc2C)c1C | 15.7
CN1C2CN(Cc3ccco3)CC2C[C@@H]1C(=O)NCC1CC1 (stereo partly specified) | 6.3
CN(C)C(=O)N1CCC2(CC1)NC(=O)c1ccccc12 | -22.1
COCCN(Cc1ccc(C)cc1)Cc1cccc(O)c1 | 33.8
Cc1ccc(-c2nc(C)cc(OS(=O)(=O)c3ccc(C)cc3)n2)cc1 | 4.9
COCc1cn(CC[C@H]2CC[C@H](NC(=O)Nc3c(C)noc3C)[C@H](CO)O2)nn1 | -4.3
Cn1cc(C2=C(c3cn(CCCSC(=N)N)c4ccccc34)C(=O)NC2=O)c2ccccc21 | -77.0*
CCOc1ccc(-c2cc3c(=O)n(Cc4nc(-c5cccc(Cl)c5)oc4C)ccn3n2)cc1 | 33.0
Cc1cc(C(=O)Nc2ccc(S(N)(=O)=O)cc2)no1 | -86.7*
C=CCN1CC[C@@]2(CN(C(=O)[C@H]3CCCO3)C[C@H]2c2ccccc2)C1=O | -37.1
O=C(C[C@H]1COC[C@@H]2CN(Cc3ccco3)C[C@@H]12)NCC1CC1 | -6.8
C[C@@H]1CN([C@H](C)CO)C(=O)CCCn2nncc2CO[C@H]1CN(C)C(=O)c1ccc(N2CCN(C)CC2)cc1 | -26.5
CO[C@@H]1CN(C)C(=O)c2ccc(NC(C)=O)cc2OC[C@@H](C)N(Cc2cccc(F)c2)C[C@H]1C | 196.1
C[C@H]1CN([C@@H](C)CO)C(=O)c2cccc(NC(=O)c3ccncc3)c2O[C@@H]1CN(C)Cc1ccc2c(c1)OCO2 | -50.2
CC(NC(=O)c1cnn2ccn(C)c12)c1cn2ncsc2n1 (stereo unspecified) | 8.6
OCc1ccc(-c2c(-c3ccccc3)ncn2Cc2ccc3c(c2)OCO3)o1 | 13.2
Cc1cc(C(=O)N2CCC(c3oncc3-c3cnccn3)CC2)on1 | -3.2
Clc1ccc(-c2nc(N3CCC4(CC3)OCCO4)c3ccccc3n2)cc1 | -35.3
CN(C)C(=O)c1cccc(-c2ccc(C3[C@@H]4CN(S(=O)(=O)c5cccc(Cl)c5)C[C@H]3N4)cc2)c1 (stereo partly specified) | 16.5
Cc1ccc(C2(O)CCN(CCNC(=O)c3cc4c(s3)CCC4)CC2)cc1 | -34.4

Not all compounds are listed; count on the stated rates, not on these rows.
